# Compound activity from PubChem BioAssay.
# Ba CapD inh: inhibitors of Bacillus anthracis CapD enzyme. z-score (no concentration beside the values). 140,000 compounds, 0.23% hits. purified CapD enzyme, fluorescence intensity read-out; stronger effect = lower value; some hits fall short of the stated cut;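 active = z-score under -4 in either of two replicates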;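 also: stock transfer was 100 nL into about 40 µL; score is relative to mean and spread of the plate; one replicate is shown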
# AID504770: growth inhibitors of E. coli YBA685 in a screen for V. cholerae RctB (chromosome II replication) inhibitors; 130,000 compounds, 0.27% hits; AID 504770; E. coli YBA685 rctB-dependent plasmid, OD600 growth, 3 h; stronger effect = lower value; z-score (concentration not given with the values);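 active = z-score under -2 on both plates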;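 also: wells of about 30 µL received 100 nL stock; score is relative to mean and SD of the test wells; the first replicate is given; strong numbers were not always called active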
# Numbers without * were called inactive; . = not tested or not shown.
canonical_smiles	Ba CapD inh	AID504770
O=C(O)C1C2C=CC(C2)C1C(=O)N1CC=C(c2ccccc2)CC1 (configuration not stated)	-2.7	-0.9
COc1cc(OC)c(OC)cc1/C=C1\N=C(c2c(-c3ccccc3)noc2C)OC1=O	-0.62	.
O=C1c2ccccc2CC1Sc1nnc(-c2ccccn2)c(-c2ccccn2)n1 (configuration not stated)	.	0.05
CCOc1cc(C2C(C#N)=C(N)Oc3n[nH]c(-c4ccc5c(c4)OCO5)c32)ccc1OC(=O)N1CCOCC1 (configuration not stated)	-0.2	.
COc1ccc(Cc2c(Cl)ncnc2Cl)cc1	0.12	2.2
COc1ccc(C2Nc3ccccc3C(=O)N2c2ccc(C)cc2)cc1COc1ccc(Cl)cc1 (configuration not stated)	10	.
CC(=O)Nc1nc(C)c(-c2csc(Nc3ccc(S(=O)(=O)Nc4cc(C)on4)cc3)n2)s1	8	.
CCOC(=O)c1cnn2c1nc(N1CC(C)CC(C)C1)c1ccccc12 (configuration not stated)	35	0.95
Cc1ccc2oc(-c3cccc(N)c3)nc2c1	61	-0.35
COc1ccc(NC(=O)c2cc3cc(OC)ccc3oc2=N)cc1	6.8	-0.35
CC(=O)c1c(C)nc2c(C#N)c(C)n(-c3ccccc3)c2c1-c1ccccc1	-0.1	.
O=C(CCc1ccccc1)Nc1nnc(SCc2ccc(F)cc2)s1	-0.75	1.9
COc1cccc(NC(=S)N(Cc2ccccc2)Cc2ccc(C)o2)c1	0.14	2.2
COc1ccc(C2Nc3ccc4ncccc4c3C3=C2C(=O)CCC3)c(OC)c1 (configuration not stated)	-0.26	.
CCCCOC(=O)Nc1nc2ccccc2s1	-0.63	.
FC(F)(F)c1cccc(-c2nc(-c3ccc(-c4ccon4)s3)no2)c1	1.9	0.35
Cc1cc(NS(=O)(=O)c2ccc(NC(=S)NC(=O)c3ccccc3)cc2)no1	.	-1.5
O=C1CN(C(=O)COC(=O)Cn2cnc3ccccc3c2=O)c2ccccc2N1	.	-0.9
CCOc1ccc(-c2nc(CSCC(=O)NC3CCCC3)c(C)o2)cc1	24	-0.75
COc1ccc(S(=O)(=O)N(CC(=O)NCCSCc2cccc(Cl)c2)c2ccc(C)cc2)cc1OC	0.27	.
COc1cc2ccccc2cc1C(=O)Nc1nc2c(s1)CCc1ccccc1-2	11	.
O=C(NCCC1=CCCCC1)c1ccc2c(c1)OCCO2	-0.3	1.7
C=CCC(C)(NCCc1ccccc1)c1ccco1 (configuration not stated)	.	-0.25
O=C(CSc1nc2scc(-c3cccs3)c2c(=O)[nH]1)c1ccc[nH]1	.	2.3
CCOC(=O)c1c(C)n(-c2ccccc2)c2ccc(OC(=O)c3ccc(Cl)cc3Cl)cc12	0.26	.
CSc1nc(Nc2cccc(C(F)(F)F)c2)cc(C(F)(F)F)c1C#N	67	0.15
Cc1ccc(-n2nnnc2SCC(=O)NN2C(=O)NC3(CCCCC3)C2=O)cc1	.	2.4
CN1C(=O)c2ccccc2C(C(=O)Nc2ccccn2)C1c1c[nH]c2ccccc12 (configuration not stated)	-0.39	-0.8
CN1C(=O)N(Cc2ncc(-c3ccccc3)o2)C(=O)C1(C)C	.	0.7
COc1ccc(CCNC(=O)CCCn2c(SCC(=O)NCc3ccccc3)nc3ccccc3c2=O)cc1OC	0.28	.
CCOC(=O)N1CCN(C(=O)C2CCN(S(=O)(=O)N(CC)CC)CC2)CC1	-0.27	-0.3
O=C(Nc1nc2ccc3ccccc3c2s1)c1ccc(S(=O)(=O)N(CCCl)CCCl)cc1	1.4	.
Cc1nnc2ccc(-c3ccc(NS(=O)(=O)c4ccc5c(c4)OCCO5)cc3)nn12	.	0.5
COc1ccc(C=C2C(=O)OC(C)(C(C)(C)C)OC2=O)cc1 (configuration not stated)	-0.15	-1.2
CC(=O)N1CCN(C(=O)C2(NC(=O)Nc3ccc(C)cc3)CCCCC2)CC1	.	2
CCCN1C(=O)/C(=c2/s/c(=C3\C=Cc4ccccc4N3CC)c(=O)n2-c2ccc(C)cc2)SC1=S	-0.41	.
COC(=O)c1c(C)noc1-c1cccs1	19	0.25
CCCOC(=O)c1cc(-c2ccc(/C=C3\C(=O)N(CCO)C(=O)C(C#N)=C3C)o2)ccc1Cl	4.2	0.55
CCOC(=O)N1CCC(NC(=O)c2sc3nc4n(c(=O)c3c2C)CCCC4)CC1	0.2	1.4
CO/N=C/c1c(Sc2cccc(C(F)(F)F)c2)nc2sccn12	-0.2	.
O=C1CC2CS(=O)(=O)CC2N1C1CCCCC1 (configuration not stated)	0.32	0.95
O=c1c(Oc2ccccc2F)coc2cc(O)ccc12	0.51	2
CC(C)(C)c1ccc(C(O)=C(C#N)C#N)cc1	-0.09	-0.45
Cc1nnc(-c2ccccn2)[nH]c1=O	-0.35	-0.6
CCCN(Cc1nnc(-c2ccco2)o1)C(=O)C1CCN(c2ncc(C(F)(F)F)cc2Cl)CC1	.	-0.6
CC1CCCCN1C(=O)c1cc2ccccc2cc1O (configuration not stated)	2.3	2.8
Nc1ccc2c(c1)C(=O)N(CC1CCCO1)C2=O (configuration not stated)	-0.16	-0.7
Cc1cccc(NC(=O)/C(=C/c2cccc([N+](=O)[O-])c2)NC(=O)c2ccccc2Br)c1	-0.68	.
COc1ccc(Nc2nnc(SCC#N)s2)cc1	.	-0.1
CCN(CC)C(=S)SCc1nc(N)nc(Nc2ccccc2OC)n1	-0.02	-0.7

# (further entries)
canonical_smiles	Ba CapD inh	AID504770
O=C(c1cc2nc(-c3ccco3)cc(C(F)(F)F)n2n1)N(Cc1ccccc1)Cc1ccccc1	14	0.6
Cc1nn(-c2ccccc2)c2nc(N)c(C(N)=O)cc12	31	-1
O=C1NC(=O)C(=CC2CC=CCC2)C(=O)N1 (configuration not stated)	0.5	-1
O=S(=O)(/C=C/c1ccccc1)N1CCN(C(=S)NCC2CCCO2)CC1 (configuration not stated)	.	0.3
Cn1cccc1C(=O)N/N=C/c1c(Cl)cccc1Cl	0.69	.
CCNc1nc(SCc2ccc(Cl)c(Cl)c2)cc(C(F)(F)F)n1	1.7	.
COc1cc(C=C2C(=O)NC(=S)NC2=O)cc(Cl)c1OCc1ccc(Cl)cc1	-0.46	.
Cc1noc(C)c1CSc1nc2sc(C)c(C)c2c(=O)n1C1CCCC1	.	-0.25
O=C(O)CSc1nnnn1C1CCCCC1	.	-0.85
Brc1nc(Br)n(Cc2ccccc2)n1	-0.005	-1.2

# Fetched one by one from the entries so far, 2 records:
canonical_smiles	Ba CapD inh	AID504770
Cc1noc(C)c1CSc1nc2sc(C)c(C)c2c(=O)n1C1CCCC1	.	-0.25
COc1cc(C=C2C(=O)NC(=S)NC2=O)cc(Cl)c1OCc1ccc(Cl)cc1	-0.46	.

# (next part)
canonical_smiles	Ba CapD inh	AID504770
Clc1ccc(-c2nc(C=Nc3ccccc3)c3ccccn23)cc1	1.3	-1.1
O=C(Nc1ccccc1)C1CCCCN1S(=O)(=O)c1ccccc1 (configuration not stated)	.	-0.6
C=C(C)Cc1c(C)nc(-c2ccc(Cl)cc2)nc1OC(=S)N(CC)CC	-0.64	-0.35
CC(C)c1ccc(OCC(O)CN2CCCCC2)cc1 (configuration not stated)	-0.11	-0.75
COC(=O)CSc1nc(C)c2c(n1)CCCC2	-0.28	0.25
COC(=O)COc1ccccc1C(=O)OC	-0.18	-0.75
CCN1CCN(c2cc3c(cc2F)c(=O)c(S(=O)(=O)c2ccc(OC)cc2)cn3C)CC1	32	0.75
O=C(NNC(=O)c1ccc2nsnc2c1)OCC(Cc1ccccc1)N(Cc1ccccc1)Cc1ccccc1 (configuration not stated)	-1.1	.
Cc1ccc(-c2nc3sccn3c2/C=C/C(=O)c2ccc(Cl)cc2)cc1	-0.3	.
OCc1cn(CC(O)Cn2cnc3ccccc32)c2ccccc12 (configuration not stated)	.	0.2
COc1ccccc1NS(=O)(=O)c1ccc2oc(SCC(=O)N3CC(C)OC(C)C3)nc2c1 (configuration not stated)	.	0.55
COc1cccc(-n2ccnc2SCC(=O)NCc2ccccc2)c1	-0.75	-0.5
CCCCSC1=C(C#N)C(=O)NC(C(C)C)S1 (configuration not stated)	-1.2	-0.3
Cc1ccc(Nc2nc(O)c(C3=c4cc(Br)ccc4=NC3=O)s2)cc1C	-0.11	.
CCOC(=O)c1ccc(OCC2NCCc3cc(OC)c(OC)cc32)cc1 (configuration not stated)	0.2	0.6
Cc1nn(-c2ccccc2)c2sc(C(=O)NN=C3CCCC3)cc12	.	2.2
Cc1ccc(-c2nc(C#N)c(N(C)C)o2)cc1	65	1
CCN1C(=O)CS/C1=N\S(=O)(=O)c1ccccc1	.	1.6
CCOC(=O)N1CCN(S(=O)(=O)c2ccc(C(=O)Nc3nc4ccc5ccccc5c4s3)cc2)CC1	-0.31	.
Cc1ccc2c(CNCc3ccccc3)c(C(=O)O)[nH]c2c1	0.65	-0.55

# Ordered by count of non-hydrogen atoms (rising): seven of the compounds above
canonical_smiles	Ba CapD inh	AID504770
Cc1ccc(-c2nc(C#N)c(N(C)C)o2)cc1	65	1
CCN1C(=O)CS/C1=N\S(=O)(=O)c1ccccc1	.	1.6
Cc1nn(-c2ccccc2)c2sc(C(=O)NN=C3CCCC3)cc12	.	2.2
COc1cccc(-n2ccnc2SCC(=O)NCc2ccccc2)c1	-0.75	-0.5
Cc1ccc(Nc2nc(O)c(C3=c4cc(Br)ccc4=NC3=O)s2)cc1C	-0.11	.
CCOC(=O)c1ccc(OCC2NCCc3cc(OC)c(OC)cc32)cc1 (configuration not stated)	0.2	0.6
COc1ccccc1NS(=O)(=O)c1ccc2oc(SCC(=O)N3CC(C)OC(C)C3)nc2c1 (configuration not stated)	.	0.55

# (listing goes on)
canonical_smiles	Ba CapD inh	AID504770
CC(C)CC(=O)N1CCN(Cc2ccccc2)CC1	0.23	0.8
CN(Cc1ccccc1)S(=O)(=O)c1ccc(NC(=O)c2ccco2)cc1	.	-0.65
Cc1cc(N)n(C2CCCCC2)n1	-0.075	-0.45
O=C(C1COc2ccccc2O1)N(Cc1ccc2c(c1)OCO2)C1CCCC1 (configuration not stated)	.	0.05
Cc1ccccc1NC(=O)c1ccccc1NC(=O)c1ccccc1	12	0.5
CS/C(=N/S(=O)(=O)c1ccccc1)N1CCN(c2c(C#N)cccc2C#N)CC1	16	1.4
COc1nc(Nc2ccc(C)cc2)nc(N2CCC(C)CC2)n1	0.085	-0.2
CC1(C)COC(N(C(=O)NC2CCCCC2)c2cccc(Cl)c2)=N1	-0.12	0.35
CCC(C)NC(=O)c1ccc2ccccc2c1 (configuration not stated)	1.3	-0.5
O=C(COC(=O)Cn1cnc2ccccc21)Nc1ccccc1	.	1.8
CN(C)S(=O)(=O)c1ccc2nc(NC(=O)/C=C/c3ccccc3)sc2c1	4.2	0.5
CCOC(=O)c1c(NC(=O)CCCC(=O)O)sc(C)c1C	4.6	-0.85
O=C1OC(CC(=O)N2CCN(Cc3ccc4c(c3)OCO4)CC2)c2ccccc21 (configuration not stated)	.	-2.7
Nc1nc(Sc2cc(-n3cccc3)c(Cl)cc2[N+](=O)[O-])n[nH]1	-0.34	.
COc1ccc(-c2nnc(SCC(=O)NCc3ccc(OC)c(OC)c3)n2N)cc1	.	1.4
CC1CC(C)(C)OC(C2CC=CCC2)O1 (configuration not stated)	0.28	0.45
O=C(NCC1CCCO1)c1cc2sccc2n1Cc1ccc(F)cc1 (configuration not stated)	.	2.2
CN(c1ccccc1)S(=O)(=O)c1ccc2c3c(cccc13)C(=O)N2	.	-0.5
COc1ccc(Cl)cc1-n1c(SCc2cccc(Cl)c2)nnc1-c1cc2occc2n1C	0.11	1.6
COc1cc2ncnc(N3CC(C)OC(C)C3)c2cc1OC (configuration not stated)	-1.3	0.6
COC(=O)c1sccc1-c1ccc(COC(=O)NC2CCCCC2)o1	21	.
CCN(C(=O)Cn1cc(C(F)(F)F)ccc1=O)C1=CCCC1	.	0.2
Cc1ccc(C2(O)CN(c3cccc(C)c3C)C3=[N+]2CCCC3)cc1 (configuration not stated)	-0.015	.
CCCn1c(N2CCN(CC(=O)Nc3ccc(Cl)cc3)CC2)nc2ccccc21	.	0.4
Cc1ccc(S(=O)(=O)N(C(=O)Oc2ccccc2)c2ccc3oc(=O)sc3c2)c(C)c1	-1.5	-0.7
CC(CO)NC(=O)C1C=C2c3cccc4[nH]cc(c34)C[C@H]2N(C)C1 (some centres not stated)	.	-0.65
O=C(CCNc1nc(-c2ccccc2)nc2ccccc12)N1CCCC1	.	-0.3
Nc1nonc1-n1nnc(C(=O)N/N=C/c2c(Br)sc3ccccc23)c1-c1ccccc1	1.1	.
COc1ccc2c(c1)c(C(=O)N1CCN(C)CC1)c(C)n2C	-0.17	-0.45
Cc1ccc(NC(=O)OCc2cccs2)cc1	.	-0.65
COC(=O)CCn1nnc(-c2cccc(C)c2)n1	.	-0.8
O=C(O)c1cc(N2C(=O)/C(=C/c3ccc(Cl)cc3)C=C2c2ccccc2)ccc1O	-0.11	.
NC(=Nc1ccccc1Cl)SCc1c(Cl)cccc1Cl	0.91	.
Cc1ccc2c(c1)/C(=C/c1ccccc1)c1cc3ccccc3nc1-2	6	.
CC(CCc1ccccc1)NC(=O)CN1CCN(Cc2ccccc2)C1=O (configuration not stated)	0.8	-0.35
Cc1sc(-c2ccccc2)nc1CC(=O)NCc1ccc(C(F)(F)F)cc1	1.3	.
CSc1cccc(NC(=O)CCS(=O)(=O)c2ccc3c(c2)CCN3C(=O)C2CC2)c1	-0.12	-0.15
CCCCn1c(=O)c(C(=O)NC)c(O)c2ccccc21	.	-0.2
CCOC(=O)Cc1nc2nc(C)c(Br)c(=O)n2[nH]1	0.47	-0.25
COc1ccccc1C(=O)Nc1c(C#N)c(C)c(C)n1Cc1ccccc1	0.1	.
